KSHV LANA nucl = inhibitors of KSHV LANA binding to nucleosomes. FITC-LANA1-23 / chicken nucleosome fluorescence polarization; stronger effect = lower value. actives 0.3% (n = 51,000). AID 720717. z-score (test concentration not listed);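 active = both repeat wells score below -2 in polarization z-score versus plate sample wells, excluding overly bright wells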;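 also: 100 nL library stock added to about 30 µL; numbers are from one replicate; some results filed as inactive read as strong as hits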
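Assay system: purified chicken nucleosomes with FITC-labelled LANA N-terminal peptide (1-23) / Probe or stimulus: 50 nM FITC-LANA1-23 probe / Compound dosing: pin-transferred compound, 100 nL / Times: compound with peptide–nucleosome mix 10–45 min at room temperature / Technique: fluorescence polarization, 480 nm excitation, 535 nm parallel and perpendicular emission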
Ab BasE inh = BasE siderophore biosynthesis inhibition. inhibition, % (test concentration not listed). AID 485350. actives 0.1% (n = 84,000). purified BasE, fluorescence polarization binding displacement;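 active = both replicates above 25% with normal brightness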;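 also: 0% = negative plate control signal and 100% = positive plate control signal; stock transfer was 100 nL into about 30 µL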
An asterisk follows results filed as active; nt = no result given; & = joins results of further samples.

SMILES	KSHV LANA nucl	Ab BasE inh
CCC(C(=O)OC)n1c(-c2ccccc2)nc2ccccc2c1=O (stereo not given)	-0.88	1.5
O=C(c1cnc2cc3c(cc2c1)OCCO3)c1ccccc1O	nt	-1.2
c1ccc(C(c2nnnn2C2CCCC2)N2CCN(c3ccccc3)CC2)cc1 (stereo not given)	0.36	-1.4
COc1ccc(/C=N/n2c(=S)[nH]nc(C)c2=O)cc1	0.53	-1.9
CCCn1c(N)c(C(=O)CSc2nnc(Nc3cccc(OC)c3)s2)c(=O)n(C)c1=O	nt	2.3
O=C(OCc1ccccn1)C1CCCCN1S(=O)(=O)c1ccccc1 (stereo not given)	nt	2.1
CN(C)C(CNC(=O)Cc1n[nH]c(=O)c2ccccc12)c1cccs1 (stereo not given)	nt	1.4
CN(C(=O)C1CC1)c1ccccc1C(=O)NCc1ccccc1	-0.27	4.6
O=C(Nc1ncc(C(O)(C(F)(F)F)C(F)(F)F)s1)c1ccccc1Cl	nt	2.4
Cc1ccc(C(=O)Cn2c(-c3ccccc3)noc2=O)cc1	0.019	2.2
CCOC(=O)c1sc(NC(C)=O)cc1C	0.32	-0.2
CCNC(=O)c1ncoc1-c1cccs1	0.088	0.5
Cc1c2c(n3c(nc4ccccc43)c1C#N)SCC2	0.037	2.4
C/C=C(/C(=C/C)c1ccc(O)cc1)c1ccc(O)cc1	0.11&-0.63&-0.35	-0.4&-0.6
Cc1nnc(SCC(=O)N2CCCC2)s1	-1	0.9
Cc1nc2ccccc2c(=O)n1NC(=O)C1CCCCC1	0.66	2.0
Oc1ccc(C2CC(c3ccccc3O)=Nc3ccccc3S2)cc1 (stereo not given)	nt	1.0
CCNC(=O)CC1C(=O)N(c2ccccc2)C(=O)N1Cc1ccc(C)cc1 (stereo not given)	-0.7	-0.3
O=C(CS)Nc1ccccc1F	nt	-0.7
COc1ccc2oc(=O)c(C(=O)NCc3ccc4c(c3)OCO4)cc2c1	2.3	0.6
O=c1[nH]c2cc3c(cc2[nH]c1=O)OCCO3	nt	2.4
COC(=O)C1=C(C)NC(=O)NC1c1cn(-c2ccccc2)nc1-c1ccc(F)cc1 (stereo not given)	0.29	-0.8
Cc1c(C(=O)CSc2ncc(C#N)c(N)n2)c2ccccc2n1C	2.1	nt
Fc1ccc(CNC2CCCC2)cc1	0.66	-0.9
Cc1nn(-c2ccccc2)c2nc(-c3cccs3)cc(C(=O)NC(C)(C)C)c12	nt	0.3
Following part:
SMILES	KSHV LANA nucl	Ab BasE inh
CN(C)C=Nc1ccc(S(=O)(=O)N(C)c2nccs2)cc1	0.31	-1.7
COc1ccc(N=C2C(=O)N(CN3CCOCC3)c3ccccc32)cc1	0.36	-1.2
CCS(=O)(=O)N1Cc2ccccc2CC1C(=O)NC1CCCCCC1 (stereo not given)	nt	1.5
COC(=O)C1=C(CSc2nnc(N)s2)NC(=O)NC1c1cccc(OC)c1 (stereo not given)	0.5	0.2
CCN(C(=O)CSc1nc2nc(C)cc(C)n2n1)c1ccccc1	-0.74	0.9
CCOC(=O)c1cc2c(C)nn(-c3ccccc3)c2s1	-0.21	1.5
COc1ccc(C=NN2CCN(Cc3ccccc3)CC2)c(OC)c1OC	-0.22	0.6
Cc1cnc(C(=O)OCC(=O)c2ccc(Cl)s2)cn1	nt	-0.5
CS(=O)(=O)c1sc(C(=O)O)c2c1C=CCC2	nt	-15
CCSc1nc(C)cc(=O)[nH]1	0.18	0.4
COc1ccc(S(=O)(=O)n2nnc3ccccc32)cc1C(C)(C)C	1.6	-0.4
Cc1c(S(=O)(=O)O)oc2c1C(=O)C(=O)c1c-2ccc2c1CCCC2(C)C	-0.89	1.8
O=C(CSc1nnc(-c2ccccc2)o1)N1c2ccccc2CCc2ccccc21	nt	-0.4
FC(F)Oc1ccccc1NC(=S)Nc1cccnc1	nt	1.0
CCN(CC(=O)NCc1cccs1)C(=O)c1cccc(F)c1	nt	0.2
N#CCc1ccc(OC(F)F)cc1	nt	0.2
C=CCn1c(C(C)C)nc2ccccc21	-0.26	4.2
Cc1ccc(N(CC(=O)Nc2ccccc2C(=O)NCc2ccco2)S(C)(=O)=O)cc1Cl	nt	-2.6
N#Cc1cccc(NC(=S)NC2CC2)c1	nt	3.0
CCOC(=O)c1c(/N=C/c2c(O)n(C)c3ccccc23)sc2c1CCC2	nt	-20
CCCCC/C=C\C/C=C\C/C=C\C/C=C\CCCC(=O)OC(CO)CO	-2.1*	-1.4
Cc1cc(/C=C(\C#N)C(=O)NCc2cccs2)c(C)[nH]1	-0.96	20
c1cc2c(cc1CNc1ccc(N3CCCC3)cc1)OCO2	0.065	0.3
CCN(CC(=O)N1N=C(c2ccccc2)CC1c1ccc(OC)cc1)Cc1nc2ccccc2c(=O)[nH]1 (stereo not given)	nt	2.2
FC(F)(F)Oc1ccc(-n2cc3ccsc3c2)cc1	-0.51	nt
Next section.
SMILES	KSHV LANA nucl	Ab BasE inh
CCOc1ccc2nc(NC3=NCCC(=O)N3)nc(C)c2c1	0.018	0.7
O=C(CN1CCN(c2ccccc2F)CC1)C12CC3CC(CC(C3)C1)C2	nt	0.7
CCC1CCCCN1C(=O)c1cc(-c2ccc(Cl)cc2)on1 (stereo not given)	-0.6	0.1
Cc1ccc(CNC(=O)C2CCCN(S(=O)(=O)c3c(C)n[nH]c3C)C2)cc1 (stereo not given)	0.78	1.7
CNCCOc1ccccc1	-0.002	-0.7
COC(=O)C1CCN(C(=O)COC(=O)Cc2coc3cc(C)ccc23)CC1	nt	-0.9
COc1cc2[nH]c(=O)n(CCCCCC(=O)NC3CCCC3)c(=O)c2cc1OC	-0.54	2.8
CC(C)(C)N1COc2ccc3c(-c4ccccc4)cc(=O)oc3c2C1	-0.8	2.6
CC1CC(C)CN(C(=O)COC(=O)Cc2cn3ccsc3n2)C1 (stereo not given)	nt	1.0
COC(=O)C1=C(C)NC(C)=C(C(=O)OC)C1C(=O)OCc1cccc(S(=O)(=O)N(C)C)c1	nt	-0.7
N#Cc1ccccc1NC(=O)CCCc1ccccc1	-1.1	-1.2
CNC(=O)COc1coc(CN2CCc3ccccc32)cc1=O	1	-1.3
CCOc1ncnc2c1cnn2-c1ccccc1	nt	-2.0
CCn1c(C(C)Oc2ccc(Cl)cc2)n[nH]c1=S (stereo not given)	-0.12	-0.6
C=CCNC(=S)Nc1ccccc1	0.65	0.5
C/C(NCc1ccncc1)=C(\C#N)C(N)=O	0.82	nt
O=C(NCc1ccccc1)C1CCN(C(=O)c2ccccc2)CC1	nt	2.4
NNc1nc(-c2ccccc2)cc(-c2ccccc2O)n1	nt	0.4
O=C1OCC2=C1C(c1ccc3c(c1)OCO3)Sc1ccccc1N2 (stereo not given)	-0.12	-2.0
COC(=O)C(F)C(=O)OC	nt	-4.4
CN1C(=O)/C(=C/c2cccs2)SC1=S	1.7	-3.7
O=C1CCCc2cc(S(=O)(=O)NCC3CCN(CCc4cccs4)CC3)ccc2N1	nt	0.2
CCOC(=O)c1cc(NC(=O)c2ccoc2C)cc(C(=O)OCC)c1	2.2	-2.3
COc1ccc(C2CC(=O)Nc3ccccc3S2(=O)=O)cc1OC (stereo not given)	0.18	1.7
O=C1CC(N2CCN(S(=O)(=O)c3cccc(C(F)(F)F)c3)CC2)C(=O)N1Cc1ccccc1 (stereo not given)	nt	2.7
(further entries)
SMILES	KSHV LANA nucl	Ab BasE inh
O=C(NCCc1ccccc1)[C@@H]1CCCN1C(=O)c1cccs1	nt	2.1
COCCNC(=O)c1c[nH]c2ccc(S(=O)(=O)N3CCc4ccccc43)cc2c1=O	-0.85	0.8
CCn1cc(C(=O)OCC(=O)N2C(C)CCCC2C)c(=O)c2cc(F)c(N3CCN(C(C)=O)CC3)cc21 (stereo not given)	nt	-0.4
CCc1nc(C)ccc1OCC(=O)O	nt	0.7
O=S(=O)(c1ccc2ccccc2c1)N1CCCCCC1	0.095	-0.4
CC(C(=O)N1c2ccccc2CC1C)N(C)CCOc1ccc(Cl)cc1 (stereo not given)	nt	4.1
Cc1cccc(NC(=O)C(O)C(O)C(=O)Nc2cccc(C)c2)c1 (stereo not given)	1.1	-1.1
COc1cc(C2SC(C)C(=O)N2CCc2ccccc2)cc(OC)c1OC (stereo not given)	nt	0.8
CN1CCN(C(=O)Cn2nc(-c3ccccc3)c3ccccc3c2=O)CC1	0.64	0.4
O=C(CNC(=O)C1CCCCC1)Nc1nc2ccccc2[nH]1	nt	2.3
O=C(NCCSc1nnnn1-c1ccccc1)c1ccc(Cl)cc1	-1.3	-1.7
CC(C)(C)S(=O)(=O)c1ccsc1S(C)(=O)=O	-0.09	-1.0
CSc1c(C#N)c(-c2ccc(Cl)cc2)nn1C(=O)c1cccs1	nt	-5.2
Cc1ccc(S(=O)(=O)N(/C(N)=N/c2nc(C)cc(C)n2)c2ccc(C)c(C)c2)cc1	nt	3.1
O=C(NCC(c1ccccc1)c1c[nH]c2ccccc12)c1ccc(C(F)(F)F)cc1 (stereo not given)	nt	1.0
O=C1C(=O)N(CC2CCCO2)C(c2ccccc2)/C1=C(/O)c1ccccc1 (stereo not given)	0.63	-1.1
COc1ccc2c(c1)nc(CN1CCN(C)CC1)n2C	-2.1	-2.3
COc1ccc(NC(=O)C2CC2)cc1OC	-0.78	2.4
CCS(=O)(=O)c1ccc2oc(=S)n(CN(C)Cc3ccccc3)c2c1	nt	3.1
Cc1cnc(=O)[nH]c1SCc1cccc2ccccc12	2.5	0.8
CCOC(=O)c1ccc(NCc2nc(N)nc(Nc3ccccc3C)n2)cc1	nt	-2.9
O=C(COc1ccc(Cl)cc1)NCc1nnc(SCC(=O)NCc2ccco2)o1	0.043	2.2
COc1cc(OC)cc(C(=O)NC(=S)Nc2cccc(-c3nc4ccccc4o3)c2C)c1	-0.54	-2.4
CC(NCCN1CCOCC1)C(=O)NC1CCCCC1 (stereo not given)	0.42	0.5
CCN1CCN(C(=O)c2ccccc2SC)CC1	-0.12	0.2
Following part
SMILES	KSHV LANA nucl	Ab BasE inh
O=C(OCCOc1ccc(Br)cc1)c1ccc2c(=O)n3c(nc2c1)CCC3	nt	0.0
C/C(=N\N(C=O)c1ccc(C(=O)O)cc1)C(=O)c1ccccc1	nt	2.2
Cc1noc(C)c1CCNC(=O)c1[nH]nc2c1CCc1ccccc1-2	-0.45	0.3
Cc1ccc(Cc2nnc(C(=O)NCCCN3CCC(Cc4ccccc4)CC3)o2)cc1	0.05	0.8
COc1ccccc1CN1C(=O)c2ccccc2C1C(=O)NCCCN1C(C)CCCC1C (stereo not given)	-0.88	2.5
O=C1CCCN1CCCNc1nn2nnnc2c2ccccc12	nt	-2.2
N=C1C(c2nc3ccccc3[nH]2)=C(O)CN1CCCN1CC(O)=C(c2nc3ccccc3[nH]2)C1=N	nt	-2.8
O=C(NCCc1ccccc1)c1ccc(Cl)nc1	-0.54	0.8
Cc1[nH]c(=O)nc(SCc2ccc(Cl)c(Cl)c2)c1C#N	nt	-7.2
C=CCn1c(Cc2cccs2)nnc1SCc1c(Cl)cccc1Cl	0.73	0.8
CCn1c2c(c3cc(Br)ccc31)CCC/C2=N\O	nt	3.2
CCOC(=O)c1cc2c(NCc3ccc(Cl)cc3Cl)nccc2nc1C(F)(F)F	nt	4.9
CCCNC(C)(C)COC(=O)c1ccccc1	0.09	-0.5
CCN(CC)CCNC(=O)c1ccc(NC(C)=O)cc1	-0.38	nt
COc1cccc(NC(=O)c2oc3ccc(S(=O)(=O)N4CCCCC4)cc3c2C)c1	-0.6	1.8
CNC(=S)N(Cc1nnc(-c2ccc(Cl)cc2)o1)C1CCCC1	nt	-0.5
S=C(Nc1ccc(Cl)cc1)N1CCN(C2CCCCC2)CC1	0.23	-0.8
O=C(CN1CCOCC1)N1N=C2c3ccccc3CCC2C1c1ccc(Cl)cc1 (stereo not given)	3	nt
COC(=O)C(NS(=O)(=O)c1ccc(NC(C)=O)cc1)C(C)C (stereo not given)	0.91	0.9
COCCNCC1C(Oc2ccc(Cl)cc2)C(=O)N1c1ccc(C)cc1 (stereo not given)	0.52	-2.5

Source: PubChem

Only part of the results is shown; count on the stated rates, not on these rows.
